TRPML1 agonist – human mucolipin-1 channel agonism; activation, % (concentration not given with the values); TRPML1-expressing cells, Ca2+ dye fluorescence, FDSS; host cell line not named in the record; reference of the full effect not given here; Q9GZU1; actives 0.12% (n = 410,000); in the data active = activation above about 50%; inconclusive = about 30% to 50%; inactive = below about 30%; further: 0% is about no effect; the text of the record puts the active cut at 80%
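Kinetic FDSS Ca2+ read in Tet-induced TRPML1-DL cells (ABD Ca8 dye plus quencher, 45-90 min RT loading): baseline, then compound, then 110 s agonist window; EC80 agonist 54-4 at 4uM final added afterwards for a 110 s antagonist window.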
D2 potentiator – potentiates the human D2 dopamine receptor allosterically; potentiation, % (test concentration not listed); P14416; DiscoveRx D2 beta-arrestin cells, luminescence, 90 min; 100% = 57 uM dopamine signal; actives 0.23% (n = 360,000); active = potentiation of 50% or more; inconclusive = 30% to 50%; inactive = 30% or less;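 further: compound concentration not given in the record; tested on top of an EC20 dose of dopamine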
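PathHunter D2 cells, attached overnight at 37 deg C, received compound in DMSO plus dopamine at EC20 (50 nM final) for 90 min at 37 deg C. Beta-arrestin recruitment was read as luminescence after 1 h with detection reagent at ambient temperature.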
TRPML1 blocker – blocks the human TRPML1 channel; Q9GZU1; TRPML1-inducible cells, Ca2+ dye fluorescence, FDSS; hits give low values; inhibition of EC80 agonist-evoked calcium signal; activity change, negative = inhibition, % (test concentration not listed); actives 0.02% (n = 390,000); in the data active means activity change below about -50%; inconclusive means about -30% to -50%; inactive means above about -30%;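 further: stimulus is agonist 54-4 at its EC80 concentration; on the % scale 0 is the no-effect control and ±100 the full control effect; compound concentration not given in the record; the text of the record puts the active cut at -80%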
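TRPML1-DL cells, Tet-induced overnight (~16 h, 37 °C) at 1,500 cells/well, were loaded with Ca8 no-wash dye plus quencher for 45-90 min at room temperature. Compounds were pinned during FDSS kinetic reading; agonist 54-4 at EC80 (4 uM final) then added.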
D2 ag – activates the human D2 dopamine receptor | actives 0.084% (n = 360,000) | DiscoveRx PathHunter D2 beta-arrestin, luminescence, 90 min; 100% = 57 uM dopamine signal | activation, % (concentration not given with the values) | P14416 | AID 624465; in the data active = activation above about 40%; inconclusive = about 15% to 40%; inactive = below about 15%; further: compound concentration not given in the record; the text of the record calls up to 30% inactive
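DiscoveRx PathHunter D2 beta-arrestin cells (2,100/well) attached overnight, then compound-stimulated 90 min at 37 C in HBSS/10 mM HEPES/0.1% Tween-20 buffer; beta-galactosidase complementation read by luminescence after 1 h at ambient temperature. Dopamine 57 uM final (EC100) as control.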
PINK1 modulator – PINK1 expression modulation; PINK1 immunofluorescence, high-content cytometry, 24 h; Potency, µM (highest dose often 76.6 µM), for inactives: top-dose activation (PINK1 increase), hits mostly activators; actives 0.2% (n = 410,000); active = well fitted activation curve with a large enough effect; inconclusive = small, poorly fitted or top-dose-only effect; inactive = flat fitted curve, though single readings scatter; cell line not stated here;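 further: potency means the concentration at half of the fitted maximal effect; % of control where 0% means no effect; nearly all actives have a fitted effect of over 65% in size; a mitochondrial uncoupler was the plate control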
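Measures PINK1 amount and localization on or inside mitochondria by immunofluorescence. Stable cells get compounds at 5 concentrations for 24 hours before fixation and staining; CCCP controls included.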
Six1-Eya2 inh – Six1/Eya2 interaction inhibition. Q15475+O00167. AlphaScreen GST-Six1/His-Eya2 binding, biochemical; hits give low values; control for the full effect not named in the record. activity change, % (no concentration beside the values). actives 0.56% (n = 360,000); in the data active = activity change below about -65%; inconclusive = about -30% to -65%; inactive = above about -30%; further: on the % scale 0 is the no-effect control and ±100 the full control effect; compound concentration not given in the record
Target sequence (O00167 whole entry, looked up): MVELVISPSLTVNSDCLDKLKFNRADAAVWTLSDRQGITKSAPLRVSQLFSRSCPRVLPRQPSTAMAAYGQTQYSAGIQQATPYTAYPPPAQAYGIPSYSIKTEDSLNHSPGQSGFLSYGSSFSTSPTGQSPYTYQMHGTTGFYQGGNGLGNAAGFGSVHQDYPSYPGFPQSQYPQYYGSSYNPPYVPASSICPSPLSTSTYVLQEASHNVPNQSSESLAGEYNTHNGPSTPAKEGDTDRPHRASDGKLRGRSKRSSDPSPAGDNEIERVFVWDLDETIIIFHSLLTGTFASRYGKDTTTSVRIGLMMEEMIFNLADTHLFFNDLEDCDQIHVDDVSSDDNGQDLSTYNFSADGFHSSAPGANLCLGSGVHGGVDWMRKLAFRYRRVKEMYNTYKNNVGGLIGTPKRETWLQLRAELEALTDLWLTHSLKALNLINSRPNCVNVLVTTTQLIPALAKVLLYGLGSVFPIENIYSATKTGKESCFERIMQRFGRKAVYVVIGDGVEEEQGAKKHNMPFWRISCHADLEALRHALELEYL
Target sequence (Q15475 whole entry, looked up): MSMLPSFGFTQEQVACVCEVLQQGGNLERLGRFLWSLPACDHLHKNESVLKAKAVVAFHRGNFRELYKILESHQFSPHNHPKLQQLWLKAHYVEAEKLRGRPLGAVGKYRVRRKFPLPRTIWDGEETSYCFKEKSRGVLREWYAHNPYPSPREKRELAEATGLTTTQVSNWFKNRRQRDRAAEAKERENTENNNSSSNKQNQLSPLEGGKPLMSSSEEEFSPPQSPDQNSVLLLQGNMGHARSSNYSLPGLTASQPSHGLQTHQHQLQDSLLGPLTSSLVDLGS
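Compounds are tested against tagged Six1 and Eya2 proteins bridged by glutathione donor and nickel acceptor beads; after a one-hour incubation at 37 °C without light, AlphaScreen emission is recorded.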
Starred values were filed as active, the others as inactive; ? = inconclusive; . = no result given; & = joins results of further samples; [ ] = another dose, or the depositor's remark.

SMILES | TRPML1 agonist | D2 potentiator | TRPML1 blocker | D2 ag | PINK1 modulator | Six1-Eya2 inh
CC(Oc1ccc(Cl)cc1Cl)C(=O)NCCN1CCOCC1 (stereo unspecified) | -0.1 | -8.1 | -5.9 | -2.0 | 1.9%[38.3 µM] | 2.7
CSC1=C(C#N)C(c2ccc3c(c2)OCO3)C2=C(CCCC2=O)N1 (stereo unspecified) | -0.7 | -7.6 | -13.2 | -2.9 | -3.0% | -0.3
O=C(NC1=NCCS1)c1cccc(N2C(=O)c3ccccc3C2=O)c1 | 0.2 | -4.3 | 0.1 | -5.7 | 0.6% | 4.5
CC(=O)c1cccc(NC(=O)CCCCCn2nnc3ccccc3c2=O)c1 | -1.4 | -9.5 | 7.4 | -2.0 | 2.7% | -10.2
COc1ccc(C)cc1NS(=O)(=O)c1ccc(Br)s1 | 1.4 | -6.7 | 15.7 | -0.1 | . | 5.9
COc1ccc(Cl)cc1NC(=S)NNC(=O)c1cccnc1 | -0.7 | -13.5 | 5.5 | -4.0 | 0.8% | -6.7
O=C(O)c1cccc(NC(=O)c2ccc(COc3ccc(Cl)cc3)cc2)c1 | 0.5 | -1.0 | -7.5 | ? | 0.7% | -2.3
Nc1cccc2c1C(=O)N(C(=O)/C=C/c1ccc(F)cc1)C2=O | -0.3 | -16.2 | 13.7 | -5.4 | -2.3% | -9.7
Cc1ccc(C(=O)NCC(=O)OCC(=O)c2ccc3c(c2)NC(=O)CO3)cc1C | -0.1 | -18.8 | -2.0 | -5.6 | -0.6% | -1.1
CC(OC(=O)c1ccc(-n2cnnn2)cc1)C(=O)Nc1ccc(F)c(F)c1F (stereo unspecified) | -0.4 | 4.8 | -1.8 | -1.7 | -0.4% | 0.6
Cc1ccc(C(=O)Nn2cnnc2)cc1S(=O)(=O)N1CCOCC1 | 0.0 | -2.8 | 14.3 | -1.1 | -1.1% | 0.0
CC1(C)CC(=O)C2=C(C1)NC(Nc1nc3ccccc3o1)=NC2c1ccccn1 (stereo unspecified) | 0.7 | -9.3 | 22.0 | -6.1 | 2.6% | -3.2
O=C1CC2(CCN(C(=O)c3ccc([N+](=O)[O-])cc3)CC2)Oc2ccccc21 | -0.2 | -4.6 | 5.9 | -0.8 | 0.2% | -10.7
O=C(CNS(=O)(=O)c1cccc(Br)c1)NCCCc1ccccc1 | -1.1 | -4.0 | -11.6 | -1.3 | -2.5% | -2.6
O=S(=O)(Nc1ccccc1-c1ccccc1)c1ccccc1 | 2.3 | -4.9 | 6.8 | -0.1 | -1.3% | 5.0
Cc1ccc(S(=O)(=O)N(C)c2ccc(OCC(=O)Nc3nc4c(ccc5ccccc54)s3)cc2)cc1 | 0.1 | -6.3 | -9.7 | 2.7 | 0.2% | -2.3
CC(=O)C1=C(O)C(=O)N(C)C1c1ccccc1[N+](=O)[O-] (stereo unspecified) | 0.7 | -6.7 | -7.8 | 1.7 | -0.5% | 5.5
NC1=NC[C@H](Cc2ccc(O)cc2)N1CCCCC1CCCCC1 | 2.8 | -9.6 | -10.0 | -3.6 | -1.3% | -10.9
Cc1ccc(NC(=O)c2ccc(-c3cccc(Cl)c3C)o2)cc1 | 1.8 | . | 21.1 | . | 1.9% | .
CC(=O)NC(Cc1cccc(C)c1)C(=O)NC1CCN(c2ncccc2[N+](=O)[O-])CC1 (stereo unspecified) | -1.0 | 3.7 | -19.1 | -6.5 | 1.0% | 0.8
CCOc1ccc2nc(NC(=O)COc3ccc(N(C)S(=O)(=O)c4ccc(C)cc4)cc3)sc2c1 | 1.2 | -0.5 | 13.1 | 3.0 | 2.9% | 0.3
C[C@H](N)c1nnc(SCc2ccc(Cl)cc2Cl)o1 | -0.8 | 0.5 | -8.3 | -3.3 | 5.5%[38.3 µM] | 4.3
N#CCC(=O)Nc1ccc(C(=O)OCC(=O)c2c[nH]c3ccccc23)cc1 | 0.3 | 0.0 | -13.8 | 1.2 | 8.8% | -3.7
CC(=O)N1C(=O)C2(C(C#N)=C(N)Oc3c2c(C)nn3-c2ccccc2)c2ccccc21 (stereo unspecified) | 1.3 | 15.7 | 10.0 | 9.0 | -0.7% | -16.9
CCN(CC)CCNC(=O)c1cc(Br)c(N)cc1OC | -0.3 | -35.5 | -5.6 | -3.8 | 2.3% | -2.5
Next results follow:
SMILES | TRPML1 agonist | D2 potentiator | TRPML1 blocker | D2 ag | PINK1 modulator | Six1-Eya2 inh
COc1cccc(/C=N/Nc2ncnc3scc(-c4ccccc4)c23)c1O | 1.7 | ? | 0.7 | 5.8 | -4.6% | -92.6*
CC(C)=CCC(C)(C)C1OCCN1C(=O)c1ccccc1 (stereo unspecified) | 0.1 | -9.4 | -7.9 | -3.5 | 3.5%[38.3 µM] | 3.5
CCOC(=O)C1CCCN(C(=O)c2c(C)nn(-c3ccc(F)cc3)c2-n2cccc2)C1 (stereo unspecified) | 3.3 | . | -1.3 | . | 1.9% | .
Cc1cc(C)c2nc(N3CCC(C(=O)NCCCN4CC(C)CC(C)C4)CC3)sc2c1 (stereo unspecified) | 1.9 | -9.4 | -15.6 | 4.9 | -2.3% | 4.5
COC(=O)CNC(=O)c1c(-c2c(Cl)cccc2Cl)noc1C | 0.4 | -8.3 | -6.2 | -1.5 | 7.0%[38.3 µM] | 0.5
CCn1c(COc2ccccc2)nnc1SCC(=O)NC1CCCCC1 | -1.2 | -13.8 | 4.5 | -10.5 | -3.0% | 4.2
O=C(CC1CCCCC1)NCc1cn2ccsc2n1 | -0.7 | -26.2 | -8.1 | -5.0 | 0.4% | -0.3
CCOC(=O)c1c(NC(=O)c2ccnn2C)sc(C)c1C | -0.7 | 8.2 | 25.5 | -1.3 | 0.7% | 15.4
O=S(=O)(NCc1cn2ccccc2n1)c1cccs1 | 0.0 | -6.3 | -16.8 | -0.8 | 1.5% | 12.1
COc1ccc(Cn2c(=O)[nH]c3cc(C(=O)N4CCN(c5ccccc5OC)CC4)ccc3c2=O)cc1 | -0.5 | -10.6 | 42.8 | -1.7 | 2.8% | -13.2
COc1ccc(/C=C/C(=O)NC(=S)Nc2ccc(S(=O)(=O)Nc3cc(C)on3)cc2)cc1 | -0.4 | 0.0 | -8.3 | -1.1 | 0.4% | -11.1
Cc1nnnn1CC(=O)Nc1ccccc1[N+](=O)[O-] | 0.1 | 2.3 | 0.8 | 2.1 | 0.2% | 5.0
CC(=O)c1ccc(S(=O)(=O)N2CCN(C(=O)CN3C(=O)NC4(CCCC4)C3=O)CC2)cc1 | -0.4 | -4.0 | 1.2 | -2.2 | 0.6% | -4.4
CC(C)(C)NC(=O)NC(=O)COC(=O)c1nc(-c2ccccc2)n(-c2cccc(C(F)(F)F)c2)n1 | 2.0 | 2.9 | 10.1 | -0.7 | 0.5% | -10.2
O=C(NC(c1ccc(Cl)cc1)c1ccsc1)C1CCN(CCOc2ccc(Cl)cc2)CC1 (stereo unspecified) | -0.3 | -15.3 | . | -2.3 | 0.3% | -11.5
O=C(NNC1=NCCCCC1)Nc1cccc(Cl)c1 | 0.3 | -18.8 | 19.6 | 0.5 | 3.1% | 13.2
Cc1ccc(CNc2nc3nc(C)c(Cl)c(C)n3n2)cc1 | -1.0 | . | -8.7 | . | 1.6% | .
COCCCN1CC(=O)N2C(c3ccccc3)c3[nH]c4ccccc4c3C[C@H]2C1=O (stereo partly specified) | 0.2 | 3.3 | 12.8 | -1.5 | -1.3% | -1.5
Cc1cc(C)nc(SCC2COc3ccccc3O2)n1 (stereo unspecified) | 1.2 | 13.9 | 22.0 | 2.6 | -1.4% | 28.0
CCCc1nc2ccc(Cl)cn2c1Cc1ccccc1OC | -0.3 | -5.5 | . | -1.2 | 15.9% | 9.4
Cc1ccc(-n2cc(CNCC3CC(=O)N(C4CC4)C3)c(-c3cccc(C)c3)n2)cc1 (stereo unspecified) | -0.8 | -25.0 | -2.3 | -5.0 | 2.6% | -6.2
CC(=O)Nc1ccc(Nc2ccc3cc(S(=O)(=O)N4CCCCC4)ccc3n2)cc1 | 1.9 | . | 10.3 | . | 5.0% | .
Cc1nc2ccc(N=NC3=C(O)CC(C)(C)CC3=O)cc2s1 | -0.6 | -12.2 | 6.9 | -2.5 | -1.4% | -1.2
COc1cc(SSc2cc(OC)cc([N+](=O)[O-])c2N)c(N)c([N+](=O)[O-])c1 | 0.3 | -11.7 | 0.4 | 6.7 | 1.4% | -26.7
CCCn1nnnc1NC(=O)c1cccs1 | -0.1 | -11.8 | 22.9 | -1.4 | 2.2% | -7.1
(listing goes on)
SMILES | TRPML1 agonist | D2 potentiator | TRPML1 blocker | D2 ag | PINK1 modulator | Six1-Eya2 inh
CCn1c(SCC(=O)Nc2ccc(S(=O)(=O)Nc3onc(C)c3C)cc2)nnc1-c1ccccc1 | -0.3 | -6.6 | 12.9 | 0.6 | -0.6%[38.3 µM] | 0.5
CCOc1ccc(-c2csc(C3COc4ccccc4O3)n2)cc1 (stereo unspecified) | -0.2 | -6.3 | -4.9 | -1.2 | ? | 3.3
CCOC(=O)c1ccc(S(=O)(=O)N2CCN(CC3CC=CCC3)CC2)cc1 (stereo unspecified) | -0.7 | 10.6 | -8.4 | 5.7 | 3.3%[38.3 µM] | -0.4
CC1CCN(CCCNC(=O)CN2C(=O)CSc3ccc(S(=O)(=O)N4CCOCC4)cc32)CC1 | -0.3&-0.6 | -29.5 | 13.9&-13.9 | -2.7 | 0.5%&-0.3% | 1.1
O=C(O)CCc1ccc(-c2ccc(Cl)cc2)n1CC(=O)Nc1ccccc1 | 2.6 | -4.9 | 9.7 | -1.2 | -0.3% | 6.5
Cc1ccc(N2CC(C(N)=O)CC2=O)cc1 (stereo unspecified) | -0.2 | 2.6 | -5.9 | -0.7 | -0.9% | -3.5
Cc1nn(-c2ccccc2)c(C)c1C(=O)Nc1nnc(-c2ccco2)o1 | -1.2 | -4.1 | -6.3 | -3.1 | 1.8% | -16.3
Cc1ccc(SC(c2ccccc2)C(Cn2cncn2)C(=O)c2ccccc2)cc1 (stereo unspecified) | 1.2 | -8.0 | 17.3 | -1.7 | 28.6% | -2.0
CCC(=O)c1ccc(N2CCN(S(=O)(=O)c3ccccc3)CC2)c(F)c1 | 1.5 | -5.6 | 14.1 | -0.1 | 2.8% | 1.8
O=C(Cc1ccc(F)cc1)N[C@@H]1c2ccccc2CC[C@H]1OCc1ccccc1 | 0.0 | . | -13.6 | -3.7 | 0.8% | 6.5
CN(C)S(=O)(=O)N1CCN(CC(O)COc2ccc3cc(Br)ccc3c2)CC1 (stereo unspecified) | -0.4 | -18.1 | 3.9 | 3.8 | 3.5% | -14.4

Three records picked at random from those above:
SMILES | TRPML1 agonist | D2 potentiator | TRPML1 blocker | D2 ag | PINK1 modulator | Six1-Eya2 inh
CC1CCN(CCCNC(=O)CN2C(=O)CSc3ccc(S(=O)(=O)N4CCOCC4)cc32)CC1 | -0.3&-0.6 | -29.5 | 13.9&-13.9 | -2.7 | 0.5%&-0.3% | 1.1
CCC(=O)c1ccc(N2CCN(S(=O)(=O)c3ccccc3)CC2)c(F)c1 | 1.5 | -5.6 | 14.1 | -0.1 | 2.8% | 1.8
Cc1ccc(N2CC(C(N)=O)CC2=O)cc1 (stereo unspecified) | -0.2 | 2.6 | -5.9 | -0.7 | -0.9% | -3.5

Screens from PubChem BioAssay.
